# LANA-H2B inh = blockers of LANA interaction with H2A/H2B – biochemical, FP readout, HTS, primary screen. inhibition, % (test concentration not listed). cell-free LANA-H2A/H2B peptide, fluorescence polarization. 320,000 tested, 0.6% active. Protein LANA1 (Human herpesvirus 8 type P (isolate GK18)), Q9QR71; in the data active = inhibition mostly above about 10%, no sharp cut-off; inactive = mostly below about 6.7%;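 note: stock transfer was 7.5 nL into about 10 µL; 0% = median of vehicle wells and 100% = median of positive control wells; one replicate is shown; the record names a cut of 25% in any replicate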
# Target sequence (Q9QR71 whole entry, looked up): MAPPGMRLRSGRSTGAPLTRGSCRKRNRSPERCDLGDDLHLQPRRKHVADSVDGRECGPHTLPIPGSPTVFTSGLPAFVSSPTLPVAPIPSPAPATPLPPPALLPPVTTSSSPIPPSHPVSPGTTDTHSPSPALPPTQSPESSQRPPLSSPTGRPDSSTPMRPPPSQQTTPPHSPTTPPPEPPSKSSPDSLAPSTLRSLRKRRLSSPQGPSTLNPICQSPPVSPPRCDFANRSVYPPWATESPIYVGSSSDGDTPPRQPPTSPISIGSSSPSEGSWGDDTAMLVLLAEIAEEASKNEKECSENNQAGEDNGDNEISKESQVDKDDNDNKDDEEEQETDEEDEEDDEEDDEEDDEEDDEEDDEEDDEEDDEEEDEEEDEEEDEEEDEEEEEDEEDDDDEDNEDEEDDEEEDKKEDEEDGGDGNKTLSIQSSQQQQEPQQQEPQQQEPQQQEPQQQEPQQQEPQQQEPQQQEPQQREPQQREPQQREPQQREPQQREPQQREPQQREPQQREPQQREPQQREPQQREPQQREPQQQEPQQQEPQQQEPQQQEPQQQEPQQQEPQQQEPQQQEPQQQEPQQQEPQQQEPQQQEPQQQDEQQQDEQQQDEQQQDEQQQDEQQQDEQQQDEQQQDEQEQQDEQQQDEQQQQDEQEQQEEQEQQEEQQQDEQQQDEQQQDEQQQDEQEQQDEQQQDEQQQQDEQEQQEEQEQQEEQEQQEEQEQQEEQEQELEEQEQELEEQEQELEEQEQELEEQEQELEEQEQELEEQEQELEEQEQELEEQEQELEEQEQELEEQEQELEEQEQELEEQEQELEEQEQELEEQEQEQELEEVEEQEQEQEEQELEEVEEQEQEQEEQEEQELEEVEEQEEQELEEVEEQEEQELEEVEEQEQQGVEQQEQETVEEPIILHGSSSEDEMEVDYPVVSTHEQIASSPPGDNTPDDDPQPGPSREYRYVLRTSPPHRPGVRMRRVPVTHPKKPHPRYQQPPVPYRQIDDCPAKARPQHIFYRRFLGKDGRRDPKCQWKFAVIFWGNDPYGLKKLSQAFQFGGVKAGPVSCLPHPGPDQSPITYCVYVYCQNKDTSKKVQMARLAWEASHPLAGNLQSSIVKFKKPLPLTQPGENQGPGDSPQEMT
# HNF4A DNA FP = change in binding of human HNF4A to DNA, primary screen, biochemical, fluorescence polarization, FITC-DNA. activity change, % at 10 µM. AID 1224865, 2016. 1 h. 360,000 tested, 0.3% active; in the data active = activity change above about 30%, passing the limit was not always enough;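 note: controls were the assay level and a saturating level of protein; the project sought stronger binding though the title names inhibitors; some compounds called inactive have numbers as strong as hits; positive values seem to mean higher polarization but the record does not say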
# B2AR ag = beta2AR agonists driving receptor internalization, primary screen, cell-based, FAP fluorogen, flow cytometry; Beta-2 adrenergic receptor (Homo sapiens), P07550; Am2.2-beta2AR cells; reference of the scale not given here; response, % (test concentration not listed); 340,000 tested, 0.43% active;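 active = response above a set limit, near 3 SD of response in nonfluorescent compounds, cut at about 42% in these data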;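 note: stock transfer was 100 nL into about 11 µL; a reference agonist was the positive control; negative values mostly stem from fluorescent compounds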
# Ecoli growth = E. coli growth inhibition, primary screen, OD600. 330,000 tested, 0.21% active. Escherichia coli growth, 23 h; hits give low values. OD600 absorbance (concentration not given with the values);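 active = OD600 absorbance below the run mean of sample wells minus 3.6 SD, in any replicate, cut at about 0.56 in these data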;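 note: stock transfer was 300 nL into about 60 µL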
# FGF22 binding = binders of human FGF22 protein, primary screen, FGF22 synaptogenesis inhibitor project, biophysical, thermal shift, single point; Fibroblast growth factor 22 (Homo sapiens), Q9HCT0; recombinant FGF22 thermal shift, SYPRO orange fluorescence; percent of sucrose octasulfate shift, DMSO zero; calls only at 9.99 µM; 340,000 tested, 1.5% active;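 active = melting point raised past a set limit in the mean and every replicate; three in four hits are not shown here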
# ALR H2O2 inh = inhibitors of human ALR sulfhydryl oxidase, primary screen, biochemical, H2O2 detection, HRP-luminol luminescence, single point. FAD-linked sulfhydryl oxidase ALR (Homo sapiens), P55789. purified ALR, DTT oxidation. inhibition, % (concentration not given with the values). 290,000 tested, 3.8% active. AID 485317, 2010;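 active = mean and each replicate at 75% or more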;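 note: stock transfer was 7.5 nL into about 7.5 µL; 0% = neutral wells and 100% = wells with inactivated enzyme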
# UCH37 inh = inhibitors of human UCH37 deubiquitinase, primary screen, biochemical, Ub-AMC cleavage, fluorescence | 330,000 tested, 0.33% active | purified proteasome/UCH37 | Ubiquitin carboxyl-terminal hydrolase isozyme L5 (Homo sapiens), Q9Y5K5 | AID 588478, 2011 | inhibition, % (concentration not given with the values);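 active = mean of two replicates above 20%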;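 note: 0% = compound-free wells with enzyme and 100% = wells lacking proteasome; stock transfer was 100 nL into about 20 µL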
#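 Material: Human UCH37 enzyme supplied as purified proteasome complex | Schedule: 30 min preincubation with enzyme, 25 min cleavage at room temperature | Detection: AMC fluorescence 355/460 nm | Measure: % inhibition of Ub-AMC cleavage fluorescence | Controls: Wells without proteasome as full block, compound-free enzyme plus substrate as uninhibited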
# The depositor's hits bear a star; i = inactive; . = not tested or not shown. The list is partial; rates above refer to the full screens.
# The opening 2 entries as a preview:
SMILES,LANA-H2B inh,HNF4A DNA FP,B2AR ag,Ecoli growth,FGF22 binding,ALR H2O2 inh,UCH37 inh
CC(C)C1(C)N=C(c2ncccc2C(=O)O)NC1=O (stereo not given),-3.6,4.4,-5,0.69,i,.,1.3
Nc1ccccc1Cl,-10,4.5,-4,0.67,i,-10,-0.4

# This part in full, from the first entry:
SMILES,LANA-H2B inh,HNF4A DNA FP,B2AR ag,Ecoli growth,FGF22 binding,ALR H2O2 inh,UCH37 inh
CC(C)C1(C)N=C(c2ncccc2C(=O)O)NC1=O (stereo not given),-3.6,4.4,-5,0.69,i,.,1.3
Nc1ccccc1Cl,-10,4.5,-4,0.67,i,-10,-0.4
CCCCCOC(=O)CCN1C(=O)/C(=C2\SC(=S)N(CCC(=O)OCCCCC)C2=O)SC1=S,-6.0,1.6,9,0.69,i,-7,8.7
CC[C@H]1CN2CCC1C[C@@H]2[C@@H](O)c1ccnc2ccc(OC)cc12 (stereo not given in full),.,1.0,-3,.,i,.,.
CC(=O)c1ccc(OCCCC(=O)Nc2ccc(Cl)c(S(=O)(=O)N3CCOCC3)c2)cc1,.,3.7,14,.,i,.,.
CN1CCN(c2ccccc2N)CC1,5.0,-1.4,2,0.73,.,-13,-0.2
O=C1NC(=S)SC1=Cc1ccc(N(CCCl)CCCl)cc1,.,195,-65,0.66,i,.,4.4
CN(c1ccc(OCC(=O)N2CCN(C/C=C/c3ccccc3)CC2)cc1)S(=O)(=O)c1cccs1,-1.2,2.8,2,0.7,i,-1,-0.2
COc1ccc(N2C(=O)/C(=C/C=C/c3ccccc3[N+](=O)[O-])C(=O)NC2=S)cc1,.,.,.,0.74,i,.,11
CCOC(C(=O)OCCCN(CC)CC)(c1ccccc1)c1ccccc1,-0.5,-0.3,15,.,.,3,.
COC(=O)C1=C(c2ccc(F)cc2F)C[C@@H]2CC[C@H]1N2C(=O)N1CCC(O)CC1,-5.9,13,1,.,i,-4,5.1
Cc1cc(C)n(-c2ccc(NN=C(C#N)C#N)cc2)n1,0.1,-2.2,17,0.62,i,98*,8.6
CN1CCN(C(=O)COc2ccc3ccccc3c2)CC1,1.7,3.0,15,0.59,i,-31,-1.0
O=C1NC(=O)N(c2ccccc2)C(=O)/C1=C/c1ccc([N+](=O)[O-])s1,0.9,-6.8,-7,0.53,i,29,5.1
CS(=O)(=O)CCN1CC2CCCC(C2)C1,.,4.0,8,.,i,.,.
CCCCn1c(O)c(C=NCCN2CCCCC2)c(=O)[nH]c1=O,-0.2,0.8,-1,0.7,.,-1,1.4
CCOC(=O)C1(CCc2ccccc2)CCN(Cc2ccc(NC(C)=O)cc2)CC1,-5.5,2.2,1,0.7,i,.,5.6
O=P(O)(O)Cc1c(Cl)cccc1Cl,-0.5,-1.5,-4,0.68,.,.,4.9
COC(=O)N(c1ccccc1)P1(=S)OCCO1,6.0,0.0,-3,0.68,.,9,4.7
CC(=O)C1CCC2C3C(N4CC4)CC4=CC(=O)CCC4(C)C3CCC12C (stereo not given),.,2.5,0,.,i,.,.
COc1ccc(CNCCc2ccc3c(c2)OCO3)cc1Br,-4.3,-0.2,-19,.,i,1,.
N#CCCn1cc(C(=O)Nc2ccccc2Br)c(-c2ccc([N+](=O)[O-])cc2)n1,3.2,-2.7,-2,0.71,i,0,0.2
Cc1c(Cl)cccc1N1C(=O)NC(=O)/C(=C\c2cc(C)n(-c3cccc(C(=O)O)c3C)c2C)C1=O,2.3,-10,7,0.67,i,45,5.2
C[C@]12CCC3C(C(=O)C[C@H]4C[C@@H](O)CC[C@]34C)C1CCC2=O (stereo not given in full),3.1,0.0,-4,0.69,i,-6,-0.3
COC(=O)C1=C(c2ccc(OC(F)(F)F)cc2)C[C@@H]2CC[C@H]1N2C(=O)NCCOc1ccccc1,0.3,0.7,6,.,i,2,3.4
Cc1cc(C)cc(-n2c(C)cc(/C=C3\C(=O)NC(=O)N(C)C3=O)c2C)c1,-0.5,1.1,-4,0.71,i,.,-8.3
CCCCN1C(=O)/C(=C/c2ccc(N(C)C)cc2)C(=O)N(Cc2ccco2)C1=O,-4.3,20,6,0.74,.,46,2.9
CN1CCN(c2cn[nH]c(=O)c2Cl)CC1,9.2,-1.6,1,0.71,i,-6,5.4
COc1ccc(NC(c2ccccc2)P(=O)(Oc2ccccc2)Oc2ccccc2)cc1 (stereo not given),-1.7,2.3,1,0.69,i,-14,1.5
CCN(CC)C(=O)c1ccc(NC(=O)c2ccc(-n3cncn3)c([N+](=O)[O-])c2)cc1,-3.0,-1.7,-2,0.69,i,-9,1.0
O=P(c1ccccc1)(c1nc2ccccc2s1)N1CCOCC1 (stereo not given),-2.1,0.1,0,0.66,.,-3,2.0
O=C1NC(=S)NC(=O)C1=Cc1ccc2c(c1)CCN2CCCCl,-2.5,-57,15,0.65,.,.,7.2
CCN1C[C@]2(C)CC[C@H](O)[C@]34C1[C@H](C[C@H]23)[C@@]1(O)C[C@H](OC)[C@H]2C[C@@H]4[C@@H]1C2O (stereo not given in full),-2.1,3.9,5,.,i,-12,5.0
O=C(Cc1cccs1)N1CCC2(CC1)OCCO2,-1.0,1.5,-6,0.68,.,-3,2.6
CCOC(=O)C1=Nc2ccccc2/C1=C\c1c(O)n(C)c(=O)n(C)c1=O,4.8,1.9,5,0.61,i,98*,5.5
Cc1ccsc1C(=O)C1CCCN(Cc2cccc(OCCO)c2)C1 (stereo not given),-2.9,2.9,-5,0.68,i,-7,1.6

# Molecules shown so far with a cyano group, in the order listed:
SMILES,LANA-H2B inh,HNF4A DNA FP,B2AR ag,Ecoli growth,FGF22 binding,ALR H2O2 inh,UCH37 inh
Cc1cc(C)n(-c2ccc(NN=C(C#N)C#N)cc2)n1,0.1,-2.2,17,0.62,i,98*,8.6
N#CCCn1cc(C(=O)Nc2ccccc2Br)c(-c2ccc([N+](=O)[O-])cc2)n1,3.2,-2.7,-2,0.71,i,0,0.2

# Structures shown so far with a nitro group on carbon, in the order listed:
SMILES,LANA-H2B inh,HNF4A DNA FP,B2AR ag,Ecoli growth,FGF22 binding,ALR H2O2 inh,UCH37 inh
COc1ccc(N2C(=O)/C(=C/C=C/c3ccccc3[N+](=O)[O-])C(=O)NC2=S)cc1,.,.,.,0.74,i,.,11
O=C1NC(=O)N(c2ccccc2)C(=O)/C1=C/c1ccc([N+](=O)[O-])s1,0.9,-6.8,-7,0.53,i,29,5.1
N#CCCn1cc(C(=O)Nc2ccccc2Br)c(-c2ccc([N+](=O)[O-])cc2)n1,3.2,-2.7,-2,0.71,i,0,0.2
CCN(CC)C(=O)c1ccc(NC(=O)c2ccc(-n3cncn3)c([N+](=O)[O-])c2)cc1,-3.0,-1.7,-2,0.69,i,-9,1.0

# More entries follow.
SMILES,LANA-H2B inh,HNF4A DNA FP,B2AR ag,Ecoli growth,FGF22 binding,ALR H2O2 inh,UCH37 inh
CC(=NCc1ccco1)c1c(O)n(C)c(=O)n(C)c1=O,-1.0,-4.0,-6,0.65,.,7,5.5
Cc1cc(/C=C2\C(=O)NC(=O)N(c3ccc(F)cc3)C2=O)c(C)n1-c1cccc(C(=O)O)c1,1.2,-8.9,-4,0.67,i,29,5.3
O=C(Cn1cc(C(=O)c2ccccc2)c2ccccc21)NCc1ccco1,-3.0,-8.1,1,0.75,.,1,1.7
CN1CCC2(CC1)N=C(c1ccc(F)cc1)C(=S)N2,-2.0,1.9,0,0.7,i,12,4.0
Cc1cccc(N2C(=O)/C(=C/c3ccc(N4CCN(C)CC4)o3)C(=O)NC2=S)c1C,-24,84*,-51,0.72,i,7,22*
COP(=O)(OC)C1(O)C(=O)Nc2ccc(Br)cc21 (stereo not given),1.8,-0.1,5,0.71,.,-2,3.5
CCN1CCN(C(=O)Cc2coc3cc(C)cc(C)c23)CC1,0.5,1.6,2,0.78,.,0,2.5
Cc1ccc(CN2CCC3CCC(C3)C2)c(O)c1 (stereo not given),.,1.7,-4,0.69,i,.,3.4
COc1ccc(C2CN(C)CC2C(=O)c2ccc(C)cc2)cc1Cl (stereo not given),0.1,-6.4,2,0.69,i,-1,4.4
COc1ccc(-n2c(O)c(/C=C3\C=Nc4ccc(Br)cc43)c(=O)[nH]c2=O)c(OC)c1,1.8,-0.5,9,.,i,97*,.
Clc1ccccc1Nc1ncnc(-n2cccc2)n1,1.9,7.1,6,0.71,.,10,1.3
O=C(Nc1ccc(Br)cc1)c1nn(C23CC4CC(CC(C4)C2)C3)cc1Br,-8.5,-0.2,1,0.82,.,.,3.0
Cc1ccc(N2C(=O)CC(=O)NC2=O)cc1Cl,-5.4,12,7,0.68,i,3,1.8
O=C1CC2OCC=C3CN4CCC56c7cc([N+](=O)[O-])ccc7N1C5C2C3CC46 (stereo not given),1.1,-0.9,-7,0.69,i,-36,8.5
CCCCn1c(C)c(C(=O)O)c2cc(OC)ccc21,0.1,-0.3,-4,0.66,i,-2,5.6
CC(=O)Nc1cc([As](=O)(O)O)ccc1O,0.8,0.8,3,0.68,i,-6,1.8
Cc1cc(C)nc(/N=C(\N)c2c(O)[nH]c(=O)[nH]c2=O)n1,3.0,3.1,0,0.7,.,-21,2.7
Clc1ccccc1CNC1CN2CCC1CC2 (stereo not given),-1.0,4.7,-12,0.7,.,13,3.0
c1ccc(C(c2ccccc2)c2ccncc2)cc1,.,0.2,1,0.67,i,.,5.0
Cc1nn(CC(=O)N2CCC3(CC2)OCCO3)c(=O)c2cc3ccccc3n12,1.2,2.3,-12,0.71,i,.,-27
Cc1ccc(OCC(=O)N2CCN(Cc3ccc4c(c3)OCO4)CC2)cc1,6.1,2.0,-2,0.69,i,-7,0.3
Oc1cc2c(cc1CN1CCN(c3ccc(F)cc3)CC1)OCO2,0.4,7.8,4,0.64,i,-5,4.9
CC1=CC(=C2C(=O)NC(=O)NC2=O)C=C(C(F)(F)F)N1Cc1ccccc1,6.3,0.8,6,0.74,i,-1,5.7
O=C(CN1CCOCC1)NCC(=O)Nc1ccc(Br)cc1C(=O)c1ccccc1,2.5,-21,-21,0.65,.,3,4.2
CC1=C(N2CC2)C(=O)C(CO)=C(N2CC2)C1=O,.,-2.1,-3,.,i,.,.
CC(=O)CC(c1ccccc1[N+](=O)[O-])c1c(O)c2ccccc2oc1=O (stereo not given),0.7,-0.2,2,0.64,i,7,5.4
C=CCn1c(O)c(N=Nc2c(C)n(C)n(-c3ccccc3)c2=O)c(=O)[nH]c1=S,-1.6,7.4,-2,0.7,i,45,20
Cc1cc(C)c(-n2c(O)c(/C=N/NC(=O)c3ccncc3)c(=O)[nH]c2=O)c(C)c1,3.4,7.4,14,0.71,i,3,-13
CCCCn1c(O)c(C(C)=NC(C)c2ccccc2)c(=O)[nH]c1=O (stereo not given),-0.9,-1.1,-6,0.68,.,-5,-0.5
Cn1c(=O)[nH]c2nncnc2c1=O,-0.7,0.9,-6,0.65,i,-23,30*
COC(=O)[C@@H]1C[C@@]1(C)[C@@H](NP(=O)(c1ccccc1)c1ccccc1)c1ccccc1,4.6,1.9,5,.,i,0,1.0
COc1ccccc1-n1c(-c2ccccc2Br)nc2ccccc2c1=O,-2.0,3.1,3,0.71,i,-1,-0.2
CCOC(=O)C1C(=O)NC23CCCC2C1c1ccccc1O3 (stereo not given),5.8,-2.4,-1,0.69,.,-4,0.6
C=C(C=O)CC1CC(O)[C@]2(C)OC3CC4OC5C[C@]6(C)O[C@]7(C)CCC8OC9C[C@]%10(C)OC%11C(C)=CC(=O)OC%11CC%10OC9C[C@@H](C)C8OC7CC6O[C@]5(C)CC5OC5C4OC3CC2O1 (stereo not given in full),-5.6,1.6,107*,.,.,1,5.3
CCCCCn1cc(C(=O)C(=O)N2CCOCC2)c2ccccc21,2.6,-2.1,-4,0.69,i,12,6.7
